# D2 potentiator: positive allosteric modulators of human D2 dopamine receptor; DiscoveRx D2 beta-arrestin cells, luminescence, 90 min; 100% = 57 uM dopamine signal; hit rate 0.23% among 360,000; AID 624464; potentiation, % (no concentration beside the values); active = potentiation of 50% or more; inconclusive = 30% to 50%; inactive = 30% or less;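 also: compound concentration not given in the record; tested on top of an EC20 dose of dopamine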
#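 PathHunter beta-arrestin assay in DiscoveRx D2 cells. Compounds were added with an EC20 of dopamine (50 nM final) for 90 min at 37 deg C. Luminescence was read 1 h after detection reagent, with 57 uM dopamine as the EC100 control.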
# Six1-Eya2 blk: Six1/Eya2 interaction inhibition. AlphaScreen GST-Six1/His-Eya2 binding, biochemical; active compounds read low; control for the full effect not named in the record. AID 651725. Q15475+O00167. activity change, % (no concentration beside the values). hit rate 0.56% among 360,000; in the data active = activity change below about -65%; inconclusive = about -30% to -65%; inactive = above about -30%; also: % is scaled to controls: 0 for no effect and ±100 for the full control effect
# Target sequence (O00167 whole entry, looked up): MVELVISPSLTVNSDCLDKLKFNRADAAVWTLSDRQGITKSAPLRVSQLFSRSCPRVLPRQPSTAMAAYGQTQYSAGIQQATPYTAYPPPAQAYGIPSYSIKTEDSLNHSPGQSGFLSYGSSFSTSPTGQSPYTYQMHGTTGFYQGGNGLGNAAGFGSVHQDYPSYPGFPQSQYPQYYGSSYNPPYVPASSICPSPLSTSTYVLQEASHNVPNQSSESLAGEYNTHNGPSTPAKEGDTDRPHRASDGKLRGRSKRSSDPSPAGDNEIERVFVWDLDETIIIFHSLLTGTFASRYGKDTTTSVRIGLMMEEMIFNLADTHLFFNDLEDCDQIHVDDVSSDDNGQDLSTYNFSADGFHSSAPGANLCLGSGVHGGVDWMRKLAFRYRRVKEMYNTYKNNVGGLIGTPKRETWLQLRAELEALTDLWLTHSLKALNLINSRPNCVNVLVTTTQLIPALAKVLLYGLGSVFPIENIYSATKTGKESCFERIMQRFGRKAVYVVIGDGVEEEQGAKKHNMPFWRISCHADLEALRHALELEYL
# Target sequence (Q15475 whole entry, looked up): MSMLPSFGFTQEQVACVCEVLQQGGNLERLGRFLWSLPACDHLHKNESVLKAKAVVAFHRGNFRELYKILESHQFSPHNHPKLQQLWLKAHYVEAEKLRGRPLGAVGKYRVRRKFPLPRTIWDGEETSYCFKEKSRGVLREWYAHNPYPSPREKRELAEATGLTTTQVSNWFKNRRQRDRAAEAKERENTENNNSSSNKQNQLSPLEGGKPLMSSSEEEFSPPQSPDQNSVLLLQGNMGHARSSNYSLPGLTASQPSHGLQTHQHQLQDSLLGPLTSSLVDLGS
#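 Homogeneous AlphaScreen proximity assay pairing GST-Six1 with His-tagged Eya2 (added as 5X mix: 250 nM and 500 nM) in 50 mM Tris pH 8.0, 300 mM NaCl, 1 mM TCEP. Glutathione donor and nickel acceptor beads; 1 h, 37 °C, dark.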
# PINK1 expr mod: changes PINK1 expression. PINK1 immunofluorescence, high-content cytometry, 24 h. Potency, µM (top dose mostly 76.6 µM), for inactives: at the highest dose activation (PINK1 increase), most hits filed as activators. hit rate 0.2% among 410,000. AID 624263; active = well fitted activation curve with a large enough effect; inconclusive = small, poorly fitted or top-dose-only effect; inactive = flat fitted curve, though single readings scatter; cell line not stated here;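 also: potency is read from the fitted curve at half-maximal effect; % of control where 0% means no effect; nearly all actives have a fitted effect of over 65% in size; a mitochondrial uncoupler was the plate control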
#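 Measures PINK1 amount and localization on or inside mitochondria by immunofluorescence. Stable cells get compounds at 5 concentrations for 24 hours before fixation and staining; CCCP controls included.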
# TRPV1 potentiator: potentiators of human vanilloid receptor 1 (TRPV1) | Q8NER1 | TRPV1-expressing cells, Fluo-8 calcium influx, capsaicin EC20 potentiation; host cell line not named in the record; control for the full effect not named in the record | potentiation, % at 8.33 µM | hit rate 0.02% among 320,000; active means potentiation above 80%; inconclusive means 30% to 80%; inactive means below 30%; also: 0% is about no effect
#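 Cells expressing TRPV1 were dye-loaded with Fluo-8 and read kinetically: 10 s baseline, 3 min after compound (agonist portion), then 2 min after EC20 capsaicin (allosteric enhancer portion). Calcium-bound dye fluorescence at 480/520 nm.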
# CtBP-E1A inh: inhibitors of CtBP/E1A interaction; AlphaScreen GST-E1A/His-CtBP binding, 1536-well; active compounds read low; control for the full effect not named in the record; activity change, % (concentration not given with the values); hit rate 0.49% among 340,000; in the data active means activity change below about -65%; inconclusive means about -30% to -65%; inactive means above about -30%; also: % is scaled to controls: 0 for no effect and ±100 for the full control effect
#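 Steps: dispense buffer (Tris pH 8.0, NaCl 300 mM, TCEP 1 mM, BSA, Tween 20); add 5X protein mix (GST-E1A, His-CtBP, 125 nM each); pin 23 nL compound; 2 h at 37 °C, dark; add 5X beads (50 ug/mL); 1 h; read.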
# Sfp inh: Sfp phosphopantetheinyl transferase inhibition; AID 1490; Biochemical Sfp PPTase activity, qHTS; hit rate 3.5% among 310,000; Potency, µM, without a hit: max response, negative = inhibition, usual class: inhibitors; active = well fitted inhibition curve with a large enough effect; inconclusive = small, poorly fitted or top-dose-only effect, or another doubt; inactive = no such curve, though single readings can be large or run the other way;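 also: the enzyme is Sfp with the accession as filed and its product quenches rhodamine fluorescence; potency is read from the fitted curve at half-maximal effect; 0% = enzyme reaction without inhibitor and -100% = no enzyme wells; top concentration of the series not given in the record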
#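 Step 1, compound plus 15 nM Sfp-PPTase, 15 min, room temperature. Step 2, add rhodamine-CoA (5 uM) and BHQ-2-YbbR (12.5 uM). Step 3, read 525/598 nm fluorescence at 0 and 30 min.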
# D2 ag: human D2 receptor agonism in beta-arrestin assay; P14416; DiscoveRx PathHunter D2 beta-arrestin, luminescence, 90 min; 100% = 57 uM dopamine signal; activation, % (concentration not given with the values); hit rate 0.084% among 360,000; in the data active = activation above about 40%; inconclusive = about 15% to 40%; inactive = below about 15%; also: compound concentration not given in the record; the text of the record calls up to 30% inactive
#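 DiscoveRx PathHunter D2 beta-arrestin cells (2,100/well) attached overnight, then compound-stimulated 90 min at 37 C in HBSS/10 mM HEPES/0.1% Tween-20 buffer; beta-galactosidase complementation read by luminescence after 1 h at ambient temperature. Dopamine 57 uM final (EC100) as control.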
# Starred values were filed as active, the others as inactive; ? = inconclusive; / = not tested or not shown; & = joins results of further samples; [ ] = remark or other dose.
1: CCOC(=O)C1CCCN(C(=O)c2csc(-c3ccc4c(c3)CCO4)n2)C1 (stereo not given)
2: C[C@H](CO)N1C[C@H](C)[C@H](CN(C)C(=O)Nc2ccc(F)cc2)Oc2ccc(NC(=O)NC3CCCCC3)cc2CC1=O
3: Cc1cccc(C(=O)NCC(=O)NCC(c2ccco2)N2CCCCC2)c1 (stereo not given)
4: COc1cc(/C=C(\C#N)C(=O)NCC2CCCO2)ccc1O (stereo not given)
5: c1nc(N2CCOCC2)c2c3c(sc2n1)CCCC3
6: COc1ccc(C2c3c(noc3C)CC(C)(O)C2C(C)=O)cc1 (stereo not given)
7: O=C(NCCc1ccc(Cl)cc1)c1ccc2nccnc2c1
8: COC(=O)Cn1c2ccccc2c2nc(=O)cc(C)n21
Compound	1	2	3	4	5	6	7	8
D2 ag	-0.8	-2.2	-3.8	-5.0	0.6	-3.7	7.3	-0.1
Six1-Eya2 blk	-7.9	2.6	-9.5	8.6	1.2	6.1	8.8	-20.8
Sfp inh	8.5%	/	/	13.3%	6.4%	17.6%	14.7%	15.6%
PINK1 expr mod	2.6%	-0.6%	2.3%	1.7%&-0.3%	-4.5%[38.3 µM]	-1.9%	-0.6%	1.6%
CtBP-E1A inh	-7.4	1.9	-0.3	6.0	-1.2	1.4	2.8	-2.8
D2 potentiator	-1.2	-13.8	-19.9	-2.7	-5.7	-4.1	6.8	0.1
TRPV1 potentiator	-28.3	/	2.5	-1.0	-2.9	-7.3	0.9	-2.6

9: CC1C(=O)N(Cc2cn(CCC3OCCO3)nn2)CCS(=O)(=O)N1Cc1ccc(-c2ccccc2)cc1 (stereo not given)
10: COc1cccc(C2/C(=C(/O)c3ccc(F)cc3)C(=O)C(=O)N2CCN(C)C)c1 (stereo not given)
11: COc1cccc(-c2nn3c(-c4cc(C)[nH]n4)nnc3s2)c1
12: O=C1CC2(CCCC2)Oc2ccc(F)cc21
13: O=C(NCc1ccc(Cl)cc1)c1ccc(COCC(F)(F)F)o1
14: CC(CNC(=O)Cn1ccc(NC(=O)OCc2ccccc2)nc1=O)c1ccccc1 (stereo not given)
15: CCOc1cc(/C=C(/C#N)c2nc3ccccc3[nH]2)ccc1Oc1ccc([N+](=O)[O-])cn1
16: CC(C)CCC1(CCNC(C)c2cccs2)CCOC(C)(C)C1 (stereo not given)
Compound	9	10	11	12	13	14	15	16
D2 ag	-2.8	-1.1	-1.0	-3.4	-5.7	0.4	4.1	3.5
Six1-Eya2 blk	-6.6	1.4	?	0.9	-12.0	1.7	-1.0	12.4
Sfp inh	/	-8.1%	22.6%	/	8.9%	/	12.4%	18.5%
PINK1 expr mod	3.6%	-0.9%[38.3 µM]	-2.5%&0.3%	10.0%	-1.7%	-0.2%	/	8.5%
CtBP-E1A inh	2.3	8.4	?	/	-10.5	6.7	9.1	0.0
D2 potentiator	5.9	-1.1	-8.5	-4.9	-29.6	0.5	22.1	-2.4
TRPV1 potentiator	/	19.2	/	/	-7.3	2.4	-18.9	-8.1

17: COc1cc(CNC(C)(C)CO)ccc1OCC(=O)Nc1ccc(Br)cc1
18: Cc1ccc(C(=O)Nc2ccc(S(=O)(=O)N3CCOCC3)cc2)cc1Br
19: CN(C)c1ccc(/C=C2\SC(N3CCCCC3)=NC2=O)cc1
20: CCN(CC(=O)NCc1ccc(Cl)cc1)C(=O)c1cc(S(=O)(=O)N2CCOCC2)ccc1C
21: O=C(N/N=C/C(c1ccccc1)c1ccccc1)c1ccccc1F
22: CCn1c(=O)cc(OCC(=O)N2CCCC2)c2ccccc21
23: CCc1cccc(CC)c1NC(=S)Nc1ccc2cn[nH]c2c1
24: CS(=O)(=O)N(Cc1ccc(C(=O)N2CCc3ccccc3C2)cc1)c1ccccc1
Compound	17	18	19	20	21	22	23	24
D2 ag	-0.6	0.4	2.4	1.6	1.3	-2.4	-0.8	9.9
Six1-Eya2 blk	-2.7	-8.8	2.8	0.1	-2.6	0.4	3.5	-0.2
Sfp inh	14.8%	/	-5.0%	/	-19.9%	14.6%	-6.1%	8.2%
PINK1 expr mod	-3.2%	-1.5%	0.2%	0.8%	?	0.6%	0.5%	-2.4%
CtBP-E1A inh	4.7	-2.8	/	-1.0	-23.5	5.3	0.0	3.9
D2 potentiator	-3.6	-2.9	-5.9	9.7	-11.8	-0.5	-3.8	6.0
TRPV1 potentiator	0.9	/	-10.8	/	-17.3	-0.3	-1.3	6.2

25: Nc1nc2sc3c(c2cc1C(=O)NCC(=O)O)CCCC3
26: Cc1cc(C)c2nc(SC(C)C#N)cc(C)c2c1 (stereo not given)
27: CC(=O)N(CCOc1ccccc1)CCOc1ccccc1
28: N#Cc1ccccc1S(=O)(=O)N1CCN(C(=O)Cc2n[nH]c(=O)c3ccccc23)CC1
29: CC(NC(=O)COC(=O)c1ccc2c(c1)OCCO2)c1ccccc1 (stereo not given)
30: CC1=NN(c2ccc(Cl)c(C(=O)O)c2)C(=O)/C1=C\c1ccc(-c2ccc(C(=O)O)cc2)o1
31: O=c1c2ccccc2nc(SCCN2CCCCC2)n1CCc1ccccc1
32: COc1cc(NC(=O)c2cccc3c(-c4cnn(C)c4)coc23)cc(OC)c1OC
Compound	25	26	27	28	29	30	31	32
D2 ag	-0.5	0.6	-1.2	4.8	-0.8	-3.1	-3.0	?
Six1-Eya2 blk	-1.0	12.7	4.9	6.1	0.0	-9.4	-17.3	-10.9
Sfp inh	-12.7%	-14.1%	/	/	/	-10.9%	9.3%	/
PINK1 expr mod	-0.7%	4.4%	3.9%	1.5%	0.9%	4.8%	14.3%	-1.2%
CtBP-E1A inh	-0.6	13.6	/	1.7	-3.7	-4.7	-8.4	-22.5
D2 potentiator	-3.2	-10.1	-20.1	-6.4	4.9	-3.8	-23.7	8.0
TRPV1 potentiator	-12.6	-9.7	/	/	/	7.9	4.5	/

33: CCC1CCCCN1C(=O)CSc1nnc(CNC(=O)c2ccco2)o1 (stereo not given)
34: C=CC(=O)Nc1cccc(CN2C(=O)N(c3cc(OC)cc(OC)c3)Cc3cnc(NCCCCN(CC)CC)nc32)c1
35: O=S(=O)(Cc1ccccc1)Nc1cccc(Br)c1
36: N#Cc1ccc(CSc2nnc(-c3ccccn3)n2-c2ccccc2)cc1
37: Cc1cccc(-c2nc(CCNC(=O)c3ccco3)cs2)c1
38: CNc1cccnc1C=NNC(N)=S
39: C#CCNC(=O)c1ccc2sc([C@H]3C[C@H](O)[C@@H](CO)O3)nc2c1
40: Cn1c(SCc2c(F)cccc2Cl)nc2c(c1=O)SCC2
Compound	33	34	35	36	37	38	39	40
D2 ag	2.7	-4.1	-0.3	0.2	-1.3	5.5	-1.4	1.8
Six1-Eya2 blk	-0.5	-30.0	2.2	-11.6	-5.0	-88.5*	1.2	-22.1
Sfp inh	4.0%	/	-23.2%	6.0%	/	/	/	-19.4%
PINK1 expr mod	-2.2%	1.2%	0.8%	-0.5%	3.0%&2.9%	-6.2%	-0.7%	0.9%
CtBP-E1A inh	-1.4	/	2.9	-12.4	-6.6	0.0	4.7	-4.9
D2 potentiator	23.1	-21.6	-3.3	-4.9	-17.3	21.9	0.1	-1.3
TRPV1 potentiator	2.8	/	7.2	2.7	/	/	/	?

# Continued, overlapping the part above by four compounds.
37: Cc1cccc(-c2nc(CCNC(=O)c3ccco3)cs2)c1
38: CNc1cccnc1C=NNC(N)=S
39: C#CCNC(=O)c1ccc2sc([C@H]3C[C@H](O)[C@@H](CO)O3)nc2c1
40: Cn1c(SCc2c(F)cccc2Cl)nc2c(c1=O)SCC2
41: CC1(C)CC(=O)C2=C(C1)Nc1ccccc1NC2c1cccs1 (stereo not given)
42: C/C(O)=C\c1nc(=O)c2c(C)cc(C)nc2n1-c1ccccc1
43: CC1CC(C)(C)N2C(=O)C3(Nc4ccccc4S3)c3cccc1c32 (stereo not given)
44: O=c1c(Oc2ccccc2F)coc2cc(OCc3cnn(-c4ccccc4)c3)ccc12
45: CCc1ccc(Nc2nnc(SCC(=O)Nc3ccc(C(=O)O)cc3)s2)cc1
46: Clc1ccc(COn2nnc3ccccc32)c(Cl)c1
47: Cc1c(Cc2ccccc2)c(=O)oc2c(C)c(OCC(=O)N3CCC(C(=O)O)CC3)ccc12
48: O=C(NCCCNC(=O)c1ccc(Cl)cc1Cl)c1ccco1
49: C[C@H]1COC(=O)[C@@H](Cc2ccc(F)cc2)CC/C=C\C[C@H](CC(=O)NCCO)C(=O)N1
Compound	37	38	39	40	41	42	43	44	45	46	47	48	49
D2 ag	-1.3	5.5	-1.4	1.8	-6.9	-1.1	3.9	1.4	-3.0	0.0	3.0	0.4	0.9
Six1-Eya2 blk	-5.0	-88.5*	1.2	-22.1	1.8	4.8	-17.9	3.0	-7.6	21.6	-20.0	-1.5	-11.5
Sfp inh	/	/	/	-19.4%	14.5%	17.7%	?	12.4%	-4.6%	-6.8%	-26.5%	16.1%	/
PINK1 expr mod	3.0%&2.9%	-6.2%	-0.7%	0.9%	-1.0%	-2.4%[38.3 µM]	?	10.3%	-1.7%	0.9%	2.6%	0.3%	0.3%
CtBP-E1A inh	-6.6	0.0	4.7	-4.9	-3.2	17.4	-22.2	/	-5.4	17.9	-7.1	-0.4	2.6
D2 potentiator	-17.3	21.9	0.1	-1.3	14.1	-13.6	12.9	-10.4	3.8	2.5	-3.7	-2.5	-6.1
TRPV1 potentiator	/	/	/	?	-8.3	4.2	7.7	-0.7	9.0	-21.7	-0.9	-7.0	/

# Ordered by the number under Sfp inh (high to low): some entries from above.
No.	SMILES	D2 ag	Six1-Eya2 blk	Sfp inh	PINK1 expr mod	CtBP-E1A inh	D2 potentiator
42	C/C(O)=C\c1nc(=O)c2c(C)cc(C)nc2n1-c1ccccc1	-1.1	4.8	17.7%	-2.4%[38.3 µM]	17.4	-13.6
1	CCOC(=O)C1CCCN(C(=O)c2csc(-c3ccc4c(c3)CCO4)n2)C1 (stereo not given)	-0.8	-7.9	8.5%	2.6%	-7.4	-1.2
36	N#Cc1ccc(CSc2nnc(-c3ccccn3)n2-c2ccccc2)cc1	0.2	-11.6	6.0%	-0.5%	-12.4	-4.9

# The order is random. Share with any hit: about 3.7%.
